LT uptake inh = anthrax lethal toxin internalization inhibition | Potency, µM (series often up to 40 µM), inactives show at the top dose activity change, negative = inhibition, hits mostly inhibitors | 0.67% of 70,000 active | AID 912 | Cells, anthrax lethal toxin internalization, FRET ratio (460/530); active = well fitted falling ratio curve with the 530 nm signal flat; inconclusive = other ratio curves, or a change in one channel alone; inactive = flat curves in the ratio and both channels; the % refers to the ratio; note: % is set by controls: 0 for no effect and ±100 for the full control effect; nearly all actives have a fitted effect of over 50% in size; tested in ME-180 cells; beta-lactamase reporter
Prx2 Sm inh = inhibitors of Schistosoma mansoni peroxiredoxin 2; S. mansoni Prx2 activity coupled to TGR/GSH (TGR is thioredoxin glutathione reductase), NADPH fluorescence loss, qHTS; some inactives read as strong as hits; Potency, µM; 0.07% of 65,000 active; active means full or partial inhibition curve with a strong effect at the top dose; inconclusive means weaker partial or single-point curve; inactive means no accepted curve; note: series up to 57 µM; many of its hits are not listed in these tables
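Coupled assay in which S. mansoni TGR passes NADPH reducing equivalents via glutathione to Prx2, which reduces H2O2. Compounds were preincubated 15 min at room temperature with 25 nM TGR/50 nM Prx2 mix. Kinetic NADPH fluorescence loss (ex 365/em 450 nm) was monitored.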
An asterisk follows results filed as active; ? = inconclusive; · = no result given; & = joins results of further samples; [ ] = another dose, or the depositor's remark. Potency is the fitted concentration of half-maximal effect. Only part of the results is shown; count on the stated rates, not on these rows.

Start of the data: the first three entries, to show the layout:
molecule	Prx2 Sm inh	LT uptake inh
O=C(Nc1nccs1)c1ccc(NC(=O)c2ccco2)cc1	>57	8%
COc1ccccc1-c1nc(C(F)(F)F)c(OC)o1	>11	-9%
O=c1c2ccccc2nc(-c2ccco2)n1-c1cccnc1	>57	12%

The whole of this part, previewed entries included:
molecule	Prx2 Sm inh	LT uptake inh
O=C(Nc1nccs1)c1ccc(NC(=O)c2ccco2)cc1	>57	8%
COc1ccccc1-c1nc(C(F)(F)F)c(OC)o1	>11	-9%
O=c1c2ccccc2nc(-c2ccco2)n1-c1cccnc1	>57	12%
Cc1nonc1NC(=O)c1ccccc1Br	·	-7%
COc1cc2cc(CN(Cc3cccnc3)C(=O)NCc3ccccc3)c(=O)[nH]c2cc1OC	>57	1%
O=C(c1ccco1)N1CCN(S(=O)(=O)Cc2ccc(Cl)cc2)CC1	>57	2%
N#CCCn1nnc2ccccc21	>57	-5%
Cc1cc2c(C)cc(=O)oc2c2c1NCCC2	>57	?
COc1ccc(NC(=O)c2c(C)oc3c2CCCC3)cc1	>57	-14%
CCN(CCNC(=O)Cn1c(=O)sc2ccccc21)c1ccccc1	>57	?
CC1Cc2ccccc2N1C(=O)CSc1nnc2c(n1)[nH]c1ccccc12 (centres undefined)	>57	-22%
C[C@@H](C(=O)NCc1ccc(S(C)(=O)=O)cc1)[C@@H]1C[C@@]1(C)[C@@H](NC(=O)OCc1ccccc1)c1ccccc1	>57	-8%

Continued.
molecule	Prx2 Sm inh	LT uptake inh
C=CCn1c(SCC(=O)Nc2c(C)cccc2C)nnc1-c1cnccn1	>57	-14%
CCCNC(=O)COC(=O)c1ccc(S(=O)(=O)N2CCCCCC2)cc1	>57	13%
Cc1cccc(N2CCN(C(=O)c3cc4c(=O)n(C)c5ccccc5c4n3C)CC2C)c1 (centres undefined)	>57	?
Cc1cc(C)n(C(=O)CNC(=O)c2ccco2)n1	>57	?
Cc1ccc(OCC(=O)Nc2ccc(N3CCCC3)cc2)cc1C	·	-3%
COc1ccc(CN2CCN(C(=O)Cc3ccccc3)CC2)c(OC)c1	·	-2%
CCCOc1cccc(C(=O)Nc2cccc(NC(=O)c3ccco3)c2)c1	·	5µM*
Cc1cc(C(=O)CN2C(=O)NC3(CCCCC3)C2=O)c(C)n1Cc1ccc2c(c1)OCO2	>57	-10%
Cc1ccnc(Nc2nc(-c3c(C)nc4sccn34)cs2)c1	>57	?
CCNc1ncc2nc(-c3ccc(Cl)cc3)c(=O)n(CCC#N)c2n1	>57	?
CC1=C(C(=O)OC(C)C)C(c2cccs2)N2C(=O)CCSC2=N1 (centres undefined)	>57	-3%
COC(=O)c1ccc(CSc2nc(C)nc3sc(C)c(C)c23)o1	>57	6%

More results follow:
molecule	Prx2 Sm inh	LT uptake inh
CCOn1c(=O)c(=O)n(OCc2ccccc2)c2ccccc21	·	-3%
CCC(=O)Nc1nc2c(OC)ccc(C)c2s1	>57	3%
CCCC(C)C1(CC)C(=O)NC(=Nc2ccc(F)cc2)NC1=O (centres undefined)	>57	-1%
Cc1ccc(C(c2sc3ncnn3c2O)N2CCC(C)CC2)cc1 (centres undefined)	>57	0%
Cc1ccc2nc3c(cc2c1)CC1(C(=O)N(C)C(=O)N(C)C1=O)C1COCCN31 (centres undefined)	>57	11%
O=C(COc1nncc2ccccc12)NCCC1=CCCCC1	>57	21%
C=CCn1c(SCC(=O)NCC2CCCO2)nnc1C1CCCCC1 (centres undefined)	>57	-4%
CC(C)=CCC/C(C)=C/CO/N=C1/C[C@@H](O)[C@@H](O)[C@@H]2[C@@H]3C(=O)N(C4CCCCC4)C(=O)[C@H]3CC[C@@H]12	·	-23%[8 µM]
O=C(Nc1cccc2nsnc12)c1cccs1	>57&>57	?
CCOC(=O)C(CC)n1cnc2sc3c(c2c1=O)CCC3 (centres undefined)	>57	12%
CCC1Oc2ccc(C)cc2N(CC(=O)NCc2cccc(OC)c2)C1=O (centres undefined)	>57	?
CC1Cn2c(nnc2-c2cccc(N)c2)S1 (centres undefined)	>57	3%

Carrying on:
molecule	Prx2 Sm inh	LT uptake inh
O=C(COc1ccc(Cl)cc1Cl)NCCCN1CCOCC1	·	-9%
Cc1onc(-c2ccccc2)c1C(=O)OCC(=O)Nc1ccc2c(c1)OCO2	>57	?
COc1ccc(OC(=O)CCCN2C(=O)c3ccccc3C2=O)cc1	>57	-7%
CCOC(=O)C1CCN(S(=O)(=O)c2cn(C)c(=O)n(C)c2=O)CC1	>57	?
Cc1cc(NC(=O)CCCS(=O)(=O)c2nc(-c3cccs3)cc(C(F)(F)F)n2)no1	>57	?
CC(=O)c1sc2ccccc2c1OC(=O)c1ccco1	·	18%
CC(C)(C)n1ncc2c(=O)n(CC(=O)NC3CCCCC3)cnc21	>57	-10%
CN(C1CCCCC1)S(=O)(=O)c1ccc(Cl)c(C(=O)O)c1	>57	8%
CCc1nnc(NS(=O)(=O)c2ccc(N3C(=O)C4CC=C(Cl)CC4C3=O)cc2)s1 (centres undefined)	>57	26%
Cc1noc(/C=C/N(C)C)c1S(=O)(=O)N1CCCC(C(=O)NCc2cccs2)C1 (centres undefined)	>57	-8%
O=C(c1ccc(F)cc1)N1C2CCC1CC(O)(c1ccccc1F)C2 (centres undefined)	>57	8%
O=C(Nc1cccnc1)c1ccc(NC(=O)c2ccco2)cc1	>57	13%

(next part)
molecule	Prx2 Sm inh	LT uptake inh
CC(=O)O[C@H]1CC[C@]2(C)C(=CC[C@H]3[C@H]4C[C@H]5O[C@]6(CC[C@H](C)CN6)[C@H](C)[C@@H]5[C@]4(C)CC[C@@H]32)C1	>57	3%[8 µM]
COc1ccc(-c2nc(CS(=O)CC(=O)NCc3ccco3)c(C)o2)cc1OC (centres undefined)	>57	-2%
CC(=O)C1C(c2ccc(F)cc2)NC(=O)NC1(O)C(F)(F)F (centres undefined)	>57	9%
COc1ccc(N2CCN(C(c3ccccc3OC)c3nnnn3C3CCCC3)CC2)cc1 (centres undefined)	>57	-25%
Cc1c(C(=O)O)sc2ncn(C)c(=O)c12	>57	0%
COc1ccc(-n2c(=O)cc(N3CC(C)OC(C)C3)[nH]c2=O)cc1 (centres undefined)	>57	-11%
Cc1ccc(NCc2nnc(SCC(=O)OC3CCCCC3)o2)c(C)c1	>57	-5%
COc1cccc(Nc2ncnc3c2cnn3C)c1	>57	0%
COC(=O)COc1ccc(S(=O)(=O)Nc2ccc(NC(C)=O)cc2)cc1C	>57	·
CC(C)CN1CN(S(=O)(=O)c2cccs2)c2nc3ccccc3nc21	>57	-1%
CC(C)c1[nH]nc2c1C1(CCN(Cc3ccccc3)CC1)C(C#N)=C(N)O2	?	14%
CCCn1c(N)c(N(C)C)c(=O)n(CC(=O)Nc2ccc(OC(F)(F)F)cc2)c1=O	>57	-7%

A second format for part of the listing above.
smiles: CC1Cc2ccccc2N1C(=O)CSc1nnc2c(n1)[nH]c1ccccc12 (centres undefined)
  Prx2 Sm inh = >57
  LT uptake inh = -22%
smiles: C[C@@H](C(=O)NCc1ccc(S(C)(=O)=O)cc1)[C@@H]1C[C@@]1(C)[C@@H](NC(=O)OCc1ccccc1)c1ccccc1
  Prx2 Sm inh = >57
  LT uptake inh = -8%
smiles: C=CCn1c(SCC(=O)Nc2c(C)cccc2C)nnc1-c1cnccn1
  Prx2 Sm inh = >57
  LT uptake inh = -14%
smiles: CCCNC(=O)COC(=O)c1ccc(S(=O)(=O)N2CCCCCC2)cc1
  Prx2 Sm inh = >57
  LT uptake inh = 13%

Later entries
molecule	Prx2 Sm inh	LT uptake inh
CN(C)Cc1ccccc1	·	-8%
CC1(C)CC(c2csc(N)n2)CCO1 (centres undefined)	>57	-6%
Cc1nn(-c2ccc(F)cc2)c2c1cc(C#N)c1nc3ccccc3n12	>57	-5%
Cc1sc2nc(CN(Cc3cccs3)C(=O)C3CC3)[nH]c(=O)c2c1C	>57	5%
O=C1COc2ccc(C(=O)c3ccccc3)cc2CN1	>57	5%
CCCn1cnc2c(c1=O)c1nc3ccccc3nc1n2CCc1ccccc1	>57	8%
CCOC(=O)c1c(C)c(C(=O)NCc2ccccn2)c(C)n1CC	>57	17%
COC(=O)c1ccc(COc2ccc3c(C)c(C)c(=O)oc3c2)o1	·	?
CC(C)c1nnc(NC(=O)CCC(=O)Nc2ccc(F)cc2)s1	>57	?
COc1cc2cc(C(=O)Nc3ccccc3)c(N)nc2cc1OC	>57	?
Oc1ccccc1-c1nnc(SCCN2CCOCC2)n1Cc1ccccc1	>57	16%
Oc1ccc(O)cc1	>57	?

Next section.
molecule	Prx2 Sm inh	LT uptake inh
CC(C)CC(C(=O)Nn1cnnc1)N1C(=O)c2ccccc2C1=O (centres undefined)	>57	0%
CCOC(=O)c1[nH]cnc1C(=O)Nc1ccncc1	>57	16%
CCOC(=O)C1CCCN(C(=O)COC(=O)c2cc(=O)c3ccccc3o2)C1 (centres undefined)	>57	-6%
COc1cccc(C2CC(c3ccccc3Cl)Nc3nc(N)nn32)c1 (centres undefined)	>57	-8%
CC(=O)Nc1ccc(OCC(O)CN2CCN(c3cc(Cl)ccc3C)CC2)cc1 (centres undefined)	>57	?
COCCn1c(SCC(N)=O)nc2c(c1=O)SC(C)C2 (centres undefined)	>57	-8%
Cc1cc(Nc2ccc(Br)c(C)c2)n2nc(C)nc2n1	>57	3%
OC(COCc1cccs1)CN1CCN(c2ccccn2)CC1 (centres undefined)	>57	-4%
C=CC(=O)N1C(=O)c2ccccc2S1(=O)=O	·	?
NC(=O)c1ccc([N+](=O)[O-])cc1	·	0%
COc1ccc(NC(C)=O)cc1NC(=O)CSc1nnc(-c2ccccc2)n1N	>57	-4%
CCCc1cc(=O)n2[nH]c(NCc3ccccc3Cl)nc2n1	>57	?

Next part
molecule	Prx2 Sm inh	LT uptake inh
COc1ccc(C2NCc3ccc4c(c3-n3cccc32)OCO4)cc1OC (centres undefined)	>57	?
Cn1ccnc1P(=S)(c1nccn1C)N1CCOCC1	>57	4%
O=C(c1cccn2c(=O)c3ccccc3nc12)N1CCN(c2ccccn2)CC1	>57	26%
Cc1ccc(N(C(=O)C2CCCC2)C2C=CS(=O)(=O)C2)cc1C (centres undefined)	>57	-2%
CC(C)(C)OC(=O)N[C@@H](Cc1ccccc1)c1nnc(SCC(=O)O)o1	>57	?
COCCNS(=O)(=O)c1ccc(C2CNC(=O)C2)cc1 (centres undefined)	>57	10%
Cc1cc(NC(=O)c2cc3nc(C4CC4)cc(C(F)(F)F)n3n2)no1	>57	?
CC(C)OC(=O)CSc1n[nH]c(-c2cccnc2)n1	>57	3%
C[C@](N)(C(=O)O)c1ccc(-c2nn[nH]n2)cc1	>57	-4%
CCc1ccc2nc(N3CCN(C)CC3)c(C#N)cc2c1	>57	-8%
CC(C)OCC(O)Cn1c(N2CCCC2)nc2c1c(=O)[nH]c(=O)n2C (centres undefined)	>57	1%
CCn1c(C(=O)N2CCc3ccccc3C2)cc2sccc21	>57	?

Looked up by compound from the entries so far (2):
molecule	Prx2 Sm inh	LT uptake inh
CCn1c(C(=O)N2CCc3ccccc3C2)cc2sccc21	>57	?
Cn1ccnc1P(=S)(c1nccn1C)N1CCOCC1	>57	4%

(list continues)
molecule	Prx2 Sm inh	LT uptake inh
Cc1cc(CN2CCN(CCC#N)CC2)c(O)c(C2(C)CCCCC2)c1	>57	13µM*
Cc1nc(NC(=O)CSc2nc3cccnc3n2C2CCCCC2)sc1C	>57	-2%
O=C1CCC(C(=O)Nc2ccc(OC(F)F)cc2)N1 (centres undefined)	>57	0%
COc1cccc(Cn2c(=O)cnc3cnc(Nc4cccc(OC)c4)nc32)c1	>57	?
Cc1csc(NC(=O)CCCSc2nc3ccccc3s2)n1	>57	-18%
CC(C)NC(=O)N1CCCC2(CCN(C(=O)c3cccc(F)c3)CC2)C1	>57	0%
CCN(C(=O)c1coc(=O)c(Br)c1)c1ccc2c(c1)OCO2	>57	?
CC(=O)NC1CC2CCCC(C1)N2C(=O)Nc1ccc(Cl)c(C(F)(F)F)c1 (centres undefined)	>57	-10%
CCCc1cc(C(=O)NC2CCCCC2)no1	>57	-5%
CCN1C(=O)c2ccc(C(=O)NCc3ccccc3)cc2C1=O	>57	7%
Cc1ccc(Cl)cc1N1CCN(C(=O)COc2ccc(S(=O)(=O)NC(C)C)cc2)CC1	>57	?
Cc1noc(C)c1C(=O)N1CCC2(CCCN(C(=O)Nc3cccc(F)c3)C2)CC1	>57	?

The list goes on:
molecule	Prx2 Sm inh	LT uptake inh
CCC(=NC1CC1)c1c(O)n(-c2ccc(OC)cc2)c(=O)[nH]c1=O	>57	?
CCS(=O)(=O)N1CCN(c2nc(-c3ccccc3)cs2)CC1	>57	-19%
c1ccc(Cc2nnc3sc(-c4ccccn4)nn23)cc1	>57	?
CCOC(=O)Cc1csc(NS(=O)(=O)Cc2ccccc2)n1	>57	-2%
COc1ccc(OC)c(-n2nnnc2SCC(=O)Nc2ccc3c(c2)OCCO3)c1	>57	?
CC(C)c1cc(NC(=O)C(C)(C)C)cc(C(C)C)c1O	>57	9%
CN1C(=O)CCC1(O)c1ccccc1 (centres undefined)	·	-7%
O=C(Nc1sc2c(c1C(=O)O)CCCCC2)c1ccco1	·	5%

Screening data deposited in PubChem by National Center for Advancing Translational Sciences (NCATS).
